Vif TR-FRET: inhibitors of Vif binding to APOBEC3G peptide, primary screen, biochemical, TR-FRET, GST-Vif 1-94, biotin-A3G peptide, dose response retest (AID 1117319) | TR-FRET GST-Vif / biotin-A3G peptide binding; higher % means a stronger effect; test concentration not given here; strong numbers were not always called active | inhibition, %; hits with a dose series show IC50 in µM | 260,000 compounds, 0.57% hits;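 active = above the screen mean plus three standard deviations and confirmed in dose response; inconclusive = results disagree or hit not tested in dose response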;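 also: Vif residues 1-94 fused to GST binding biotinylated APOBEC3G peptide 110-148; 0% = full assay without inhibitor and 100% = GST in place of GST-Vif; retest series ran down from 100 µM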
AF4-AF9 inh: inhibitors of human MLL-AF4/AF9 interaction | AlphaScreen, biotin-AF4 peptide binding to FLAG-AF9 | inhibition, % at 10 µM | 350,000 compounds, 0.47% hits | AID 651704;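 active = every replicate reaching a set inhibition limit, whatever the replicate mean, cut at about 25% in these data; inconclusive = mean inhibition reaches that limit but some replicates miss it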;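 also: 0% = plate neutral control median and 100% = total signal loss; the record names both 10 and 1 µM as test concentration; the first replicate is given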
RanGTP-Imp inh: disruptors of Ran-importin-beta complex formation – biochemical, FRET, CFP-Ran, YFP-importin-beta, homogeneous, primary screen; cell-free CFP-Ran/YFP-importin-beta FRET ratio; inhibition, % (no concentration beside the values); 300,000 compounds, 1.1% hits;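 active = most replicates above 15%; inconclusive = exactly half above 15%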;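 also: 0% = DMSO wells and 100% = Ran loaded with GDP instead of GTP; wells of about 40 µL received 100 nL stock; the first replicate is given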
T cruzi repl: blocks replication of Trypanosoma cruzi; T. cruzi beta-gal in NIH3T3, luminescence, 90 h; inhibition, % (test concentration not listed); 300,000 compounds, 1.4% hits; AID 1885;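 active = mean inhibition across valid replicates above about 55%, limit read from the data; inconclusive = mean below that limit but half or more replicates reach it; inactive = mean below it, under half of replicates reach it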;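 also: signal also drops with host cell toxicity which is not excluded here; 0% = plate median of DMSO wells and 100% = zero luminescence signal; higher percent means less beta-gal luminescence so fewer parasites; stock transfer was 50 nL into about 50 µL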
Calb FLC: C. albicans growth modulation with fluconazole; C. albicans CaCi-2 (fluconazole-resistant clinical isolate) + fluconazole, Alamar Blue growth, 48 h; growth inhibition, % (concentration not given with the values); 300,000 compounds, 0.57% hits; AID 1979;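 active = most replicates above 75%; inconclusive = exactly half above 75%; inactive = most below 75%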;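 also: all wells also contain fluconazole at 8 µg/ml as a sub-toxic cotreatment; 0% = median of DMSO wells and 100% = median of geldanamycin control wells; wells of about 8 µL received 7.5 nL stock; the first replicate is given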
Beta cell apopt: beta cell apoptosis inhibition; protection from apoptosis, % (concentration not given with the values); INS-1E cytokine-induced death, ATP luminescence, 48 h; percent of positive-control rescue, neutral wells zero; 300,000 compounds, 0.8% hits;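 active = all replicates at 75% or more, or half of them and the mean; inconclusive = half reach 75% but not the mean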;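 also: 0% = cytokine-treated negative control wells and 100% = positive control rescue; higher means more ATP so stronger rescue from cytokine killing; wells of about 40 µL received 100 nL stock; the first replicate is given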
A1 inh: inhibitors of the anti-apoptotic protein A1, read as caspase activation | caspase activation, % (no concentration beside the values) | MEF A1-2A-BIM cells, Caspase-Glo 3/7 luminescence, 3 h; percent of clofoctol response, vehicle zero | 330,000 compounds, 0.066% hits | AID 2462;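 active = over half of replicate activation scores above 10%, or exactly half above 10 with the replicate mean above 10; inconclusive = replicate mean below 10 yet half the replicates above 10; inactive = over half of replicates below 10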;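 also: wells of about 30 µL received 50 nL stock; many hits fall short of the cut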
LANA-H2A inh: blocks KSHV LANA binding to histone H2A/H2B; Q9QR71; cell-free LANA-H2A/H2B peptide, fluorescence polarization; inhibition, % (no concentration beside the values); 320,000 compounds, 0.6% hits; AID 2629; in the data active = inhibition mostly above about 10%, no sharp cut-off; inactive = mostly below about 6.7%;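 also: stock transfer was 7.5 nL into about 10 µL; 0% = median of vehicle wells and 100% = median of positive control wells; one replicate is shown; the record names a cut of 25% in any replicate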
Target sequence (Q9QR71 whole entry, looked up): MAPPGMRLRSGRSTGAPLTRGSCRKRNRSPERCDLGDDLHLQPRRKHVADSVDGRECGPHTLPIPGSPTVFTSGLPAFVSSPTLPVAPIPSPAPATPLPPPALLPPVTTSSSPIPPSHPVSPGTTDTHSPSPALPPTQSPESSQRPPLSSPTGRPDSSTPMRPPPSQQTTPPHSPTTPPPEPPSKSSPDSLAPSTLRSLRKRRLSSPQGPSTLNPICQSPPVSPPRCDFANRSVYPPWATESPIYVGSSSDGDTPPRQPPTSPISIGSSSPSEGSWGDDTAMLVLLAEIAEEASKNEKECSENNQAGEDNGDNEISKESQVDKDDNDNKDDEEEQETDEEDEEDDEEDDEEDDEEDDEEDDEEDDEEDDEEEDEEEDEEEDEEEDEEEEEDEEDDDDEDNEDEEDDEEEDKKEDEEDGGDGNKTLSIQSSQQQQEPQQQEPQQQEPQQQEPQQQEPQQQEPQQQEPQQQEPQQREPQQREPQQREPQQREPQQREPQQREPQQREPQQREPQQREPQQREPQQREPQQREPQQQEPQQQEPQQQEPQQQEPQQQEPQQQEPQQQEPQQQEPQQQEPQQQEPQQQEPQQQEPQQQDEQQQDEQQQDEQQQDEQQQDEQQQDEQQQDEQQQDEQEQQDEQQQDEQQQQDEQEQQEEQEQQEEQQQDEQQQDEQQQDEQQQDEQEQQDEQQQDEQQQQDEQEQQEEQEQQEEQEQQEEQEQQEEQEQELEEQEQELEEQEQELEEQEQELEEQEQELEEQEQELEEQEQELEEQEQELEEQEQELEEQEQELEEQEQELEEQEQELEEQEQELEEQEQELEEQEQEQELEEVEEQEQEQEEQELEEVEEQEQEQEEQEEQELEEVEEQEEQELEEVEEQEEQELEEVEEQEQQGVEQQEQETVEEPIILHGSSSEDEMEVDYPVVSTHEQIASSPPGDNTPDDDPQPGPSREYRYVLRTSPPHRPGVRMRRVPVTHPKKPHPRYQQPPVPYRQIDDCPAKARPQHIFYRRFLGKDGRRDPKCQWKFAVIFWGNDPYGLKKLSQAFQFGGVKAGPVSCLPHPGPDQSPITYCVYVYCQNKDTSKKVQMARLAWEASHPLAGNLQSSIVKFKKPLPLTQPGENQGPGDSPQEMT
The depositor's hits bear a star; ? = inconclusive; · = no result given; & = joins results of further samples.

SMILES	Vif TR-FRET	AF4-AF9 inh	RanGTP-Imp inh	T cruzi repl	Calb FLC	Beta cell apopt	A1 inh	LANA-H2A inh
O=C(c1ccccc1)c1ccccc1C(=O)c1ccccc1	-5%&-5%	2.6&-0.8	5.1&-1.3	0	23&18	-6&-2	0.1&0.5	-4.0&-1.2
Cc1ccccc1C(=O)NCC(=O)NNC(=O)CCN1CCN(c2ccccc2)CC1	-1%	0.0	1.3	-13	5	-3	-0.9	-7.5
COc1ccc(Cl)cc1N1CCN(CCNC(=O)Nc2ccccc2C)CC1	-2%	·	-0.8	23	1	-6	0.9	-5.6
O=C(CN(c1ccc([N+](=O)[O-])cc1)S(=O)(=O)c1ccccc1)N1CCCCC1	-1%	?	5.2	7	-2	-4	1.2	-0.6
O=C(CNC(=O)c1ccccc1O)N/N=C/c1cc(Br)ccc1OC(=O)/C=C/c1ccco1	2%	-1.9	?	?	-16	89*	-0.6	-4.0
CC(C)[C@H](NC(=O)N1c2ccccc2NC(=O)[C@@H]1C(C)C)C(=O)N1CCC[C@H]1C(=O)O	·	2.0	1.4	4	-12	-8	-0.5	1.2
COc1cc(/C=N/NC(=O)c2cccc3ccccc23)ccc1OCC(N)=O	·	-1.7	6.6	-11	1	-3	0.3	3.3
O=C(Cn1c(=O)[nH]c2ccccc2c1=O)Nc1ccc2c(c1)OCO2	·	-1.4	-2.7	8	-1	0	0.2	0.2
COc1ccc(C(C(=O)NCC2CCCO2)N(C(=O)c2snc(C(N)=O)c2N)c2ccccc2)cc1OC (stereo not given)	-5%	0.4	-1.0	-5	6	·	·	·
Nc1nnc(SCc2coc(-c3ccc(Cl)cc3)n2)s1	-3%	·	1.9	-6	2	-2	-1.3	-5.2
COc1ccccc1N1CCN(/N=C/c2cc(OC)c(O)c(OC)c2)CC1	·	6.1	4.4	3	5	-4	1.3	0.5
CC1(C)CN(c2cccc(Br)c2)C1=O	-8%	-0.7	1.5	6	3	0	0.4	-5.0
Cc1ccc(S(=O)(=O)CC(=O)Nc2nc(C(C)(C)C)cs2)cc1	·	-1.8	-3.6	-11	-1	-2	0.0	4.7
CCOCCCn1cnc2c(c1=O)c1nc3ccccc3nc1n2-c1ccccc1	-1%	8.4	3.0	-17	5	3	0.1	-1.1
COc1ccc(/C(N)=N/OC(=O)CCCN2C(=O)c3ccccc3C2=O)cc1OC	2%	0.6	-0.3	-3	31	0	0.3	1.7
CC(=O)c1ccc(OCC(O)CN2CCCC(C)C2)cc1 (stereo not given)	-2%	8.3	-1.4	1	1	7	-0.2	0.6
Cc1cc(C)c2c(CN3CCN(CCO)CC3)cc(=O)oc2c1	-2%	·	4.7	13	13	-1	1.0	-0.8
Cc1nc2sc3c(NCc4ccco4)ncnc3c2c2c1COC(C)(C)C2	-18%	·	2.9	17	-6	0	0.0	1.8
O=C(COC(=O)c1ccccc1O)NCc1ccccc1Cl	·	2.1	·	·	·	-10	-0.9	-2.7
O=C(NCc1cccs1)C1CCC(CNS(=O)(=O)c2cccc3nsnc23)CC1 (stereo not given)	-2%	-2.8	-1.6	-5	8	2	-0.4	3.3
Cc1cccc(C(=O)Nc2cccc(-c3ccc4nncn4n3)c2)c1	-1%	-8.8	-1.0	-7	5	-1	-0.6	0.1
CCOC(=O)Cc1c(C)nc2c(-c3ccccc3)c(C)[nH]n2c1=O	4%	·	1.1	12	-5	·	·	·
C=CCC(Nc1ccccc1)C12C=CC(O1)C(C(=O)OC)=C2C(=O)OC (stereo not given)	-3%	·	-1.0	-1	-18	-9	1.0	-1.2
Cc1cc(C(=O)NC2CCCc3c2cnn3-c2cccc(C)c2C)no1 (stereo not given)	-16%	1.0	-0.5	-6	-5	·	-0.8	2.4
CSCC(=O)N1CCCC(C(=O)c2cc(F)ccc2F)C1 (stereo not given)	-14%	-2.2	-0.1	7	-2	2	-0.2	-1.8
CC(OC(=O)c1ccc(Cl)cc1O)C(=O)NCCC1=CCCCC1 (stereo not given)	0%	-0.6	·	·	·	3	-0.1	-0.1
Cc1noc(NS(=O)(=O)c2ccc(NC(=O)c3cc4ccccc4o3)cc2)c1C	0%	-2.9	·	·	·	-1	-0.6	-0.1
Cc1ccc2c(c1)OC(=O)CC2c1ccccc1 (stereo not given)	-3%	-3.8	1.8	-6	-5	-2	1.0	-4.5
O=C(CN1CCC(C(=O)c2ccc(F)cc2)CC1)Nc1ccccc1Cl	·	0.0	-2.8	16	-5	0	-0.1	3.5
CCOC(=O)c1c(-c2ccccc2)oc2cc(Br)c(O)cc12	-7%	0.9	0.9	-1	15	0	-0.4	4.4
CCOC(=O)C1(Cc2ccccc2)CCCN(Cc2ccccn2)C1 (stereo not given)	·	0.3	0.7	9	-4	1	0.0	-2.0
CCCNC(=O)N1CCN(C(c2ccccc2)c2ccccc2)CC1	-3%	-6.7	-1.1	13	-4	0	0.4	-1.9
S=C(NCc1cccs1)Nc1ccc(Cl)cc1	0%	·	-1.3	-15	5	1	0.2	0.6
CNC(=O)C(=O)NCC(c1cccs1)S(=O)(=O)c1ccc(C)cc1 (stereo not given)	2%	-0.9	4.2	11	-13	-3	2.4	2.2
Cc1ccc(S(=O)(=O)N2CCCC2)cc1C(=O)NCc1ccccn1	·	-13	0.5	-4	-5	-6	1.1	7.3
CCOc1ccc(C(=O)NCc2cccs2)cc1	5%	·	-3.1	-11	-1	·	-0.9	1.8
O=C(CSc1nc2ncccc2[nH]1)NC1CCCC1	·	40*	-3.7	-9	-2	2	0.6	-1.2
CNC(=O)N(O)C1N(/N=C/c2ccccc2O)C(=S)SC1(C)C (stereo not given)	22%	-0.8	0.7	-2	24	-4	1.0	-0.8
Cc1nc(SCC(=O)N2CCC(Cc3ccccc3)CC2)[nH]c(=O)c1C	1%	3.8	?	26	-15	·	0.1	1.4
COC(=O)c1ccc(N2CCOCC2)c(NC(=O)c2ccc3c(c2)OCO3)c1	·	0.7	-3.4	3	2	-1	-0.4	3.8
CC(=O)O/N=C/c1c(C)c(C=O)n2ccccc12	-4%	3.1	-2.1	1	8	-1	-0.5	6.8
CC(C)CN1CCC(=O)N([C@H](CSc2ccc(Br)cc2)Cc2ccccc2)CC1	·	·	-0.2	22	10	-34	-1.0	-1.0
CCOC(=O)c1cccc(NC(=O)CCc2c(C)nc3ncnn3c2C)c1	2%	·	1.0	10	-5	-5	-0.5	3.2
CCOC(=O)C(C)NC(=O)C(NC(=O)C1CCC(CC)CC1)C(C)C (stereo not given)	-3%	·	0.4	-7	2	-10	2.2	3.9
Cc1nc2c(nnn2Cc2ccccc2)c(=O)n1-c1ccccc1	-4%	·	-0.6	-9	-7	1	0.1	-1.0
COc1cccc(C2/C(=C(\O)c3ccc4c(c3)OCCO4)C(=O)C(=O)N2Cc2cccnc2)c1 (stereo not given)	·	-5.8	-0.4	-4	4	-1	1.0	-0.4
CC(=O)c1cccc(NC(=O)C2CC(=O)N(C3CCCC3)C2)c1 (stereo not given)	1%	1.4	·	·	·	0	0.7	-2.2
COc1ccc(-c2ccc(/C=C3/C(=N)N4C(C)=CSC4=NC3=O)o2)c([N+](=O)[O-])c1	2%	·	-4.3	15	-2	17	-0.4	1.8
O=C(CSc1nnc(CNC(=O)c2ccccc2F)o1)NC1CCCC1	·	-26	-1.1	-15	0	-9	0.8	0.5
CC#CC#Cc1cccc(=O)o1	31%	-1.4	0.3	-17	-10	-36	1.2	0.0
CCn1c(SC(C)C(=O)Nc2ccc(N3CCOCC3)cc2)nnc1-c1ccco1 (stereo not given)	5%	-5.5	3.1	-6	21	6	0.0	3.0
O=C1C=C(c2cccc(Br)c2)C[C@@H](c2ccc(Cl)cc2)C1	·	1.9	·	·	·	-6	-0.2	-3.6
O=C(NCCc1ccc(Cl)cc1)/C(=C/c1cccnc1)NC(=O)c1ccccc1	·	-0.8	-2.5	13	3	27	-0.9	-0.7
Clc1nc(NCc2ccco2)nc(N2CCCCC2)n1	0%	0.9	-0.8	-3	-18	-6	?	1.1
COc1ccc(CN2CCNC(=O)C2CC(=O)N(C)Cc2nccs2)c(OC)c1 (stereo not given)	·	-1.5	0.3	2	-5	-4	-0.9	4.3
Cc1[nH]n(-c2cccc(Cl)c2)c(=O)c1C=NCC(C)C	27%	1.0	5.7	8	-13	3	-0.4	6.6
C/C(=N\NC(=O)CSCc1ccc([N+](=O)[O-])cc1)c1ccccc1	-7%	0.4	4.9	-1	-3	3	0.2	4.0
CCC(C(=O)N1CCC(C(N)=O)CC1)n1nc(C)n2c(cc3occc32)c1=O (stereo not given)	2%	2.4	-0.7	0	3	-5	-1.0	2.8
O=C1N[C@H](Cc2ccccc2)COC(=O)[C@H](Cc2ccc(F)cc2)C/C=C\C[C@@H]1CC(=O)N(CCO)Cc1ccccc1	·	1.7	·	·	·	9	1.1	1.7
COC(=O)c1ccc(OCC(=O)Nc2ccccc2C(=O)NC2CC2)cc1	4%	-3.3	·	·	·	-2	-0.5	-1.9

Carrying on:
SMILES	Vif TR-FRET	AF4-AF9 inh	RanGTP-Imp inh	T cruzi repl	Calb FLC	Beta cell apopt	A1 inh	LANA-H2A inh
CCCCn1c(/N=C/c2ccc(N(C)C)cc2)nc2ccccc21	?	·	1.7	-18	39	0	-0.7	1.0
CC(=O)c1c(C)nn(CC(O)COc2ccc3ccccc3c2)c1C (stereo not given)	-4%	-3.7	-2.2	-2	1	1	-1.7	·
COc1ccc(NC(=O)CC2CCCC2)cc1S(=O)(=O)N1CCCCC1	?	·	3.8	-4	16	7	0.3	-2.8
O=C(CSc1nnc(-c2cnccn2)n1Cc1ccco1)Nc1ccc(Br)cc1	-1%	·	0.8	12	1	-7	0.3	-4.8
Cc1cccc(N2CCN(C(=O)C3CCN(S(=O)(=O)c4cccc5cccnc45)CC3)CC2C)c1 (stereo not given)	0%	0.0	4.0	-6	4	·	-0.9	3.5
COCCn1c(=O)[nH]c2cc(C(=O)Nc3cc(OC)c(OC)c(OC)c3)ccc2c1=O	·	4.5	-1.9	-5	0	·	0.1	-3.9
Cc1ccc(/C=N/n2c(C)nnc2C)cc1	0%	·	?	-25	1	-9	-0.4	-0.8
CCOC(=O)CC(/C(C)=N\O)c1ccccc1 (stereo not given)	-5%	·	-2.2	6	99*	-10	0.0	-3.5
Cc1ccccc1NCc1ccccc1O	24%	·	-0.1	3	-4	-8	0.2	0.8
CN(C(=O)c1ccccc1Cl)c1ccccc1C(=O)NCc1ccccc1	·	0.2	1.6	16	-14	5	0.5	-0.1
Cc1cccc(NS(=O)(=O)c2ccc(NC(=O)N3CCCCC3)cc2)c1	1%	-1.8	-2.6	-9	2	12	-0.1	-4.9
Cc1cc(C)nc(-n2nc(C)c(C3(O)C(=O)Nc4ccc(F)cc43)c2N)n1 (stereo not given)	-3%	·	-0.4	-21	-11	-3	-0.4	-0.9
CC(NC(=O)C1CCN(c2nnc(-n3cccc3)s2)CC1)C12CC3CC(CC(C3)C1)C2 (stereo not given)	-6%	·	-1.3	1	4	-7	0.9	5.5
Cc1nc(CC(=O)Nc2nc(C(C)(C)C)cs2)cs1	13%	·	-0.4	-2	-23	-1	-0.2	1.7
C[C@@H]1CCC[C@]2(O[C@H](CCO)C[C@@H](O)[C@@H]2O)O1	·	2.2	-1.6	-11	-11	-5	-0.3	1.9

Source: PubChem BioAssay (several laboratories)

This is a random part of the collection; overall some 4.3% were active at least once.
